Bioassay records deposited in PubChem by National Center for Advancing Translational Sciences (NCATS).
NS1 inh: qHTS Assay for Inhibitors of Influenza NS1 Protein Function; S. cerevisiae slowed by influenza A NS1, growth recovery by OD600; Potency, µM (top dose mostly 46.1 µM), for inactives: at the top dose activity, positive = more growth; hit rate 0.4% among 270,000; AID 2326, 2010; active means well fitted rising curve with a large enough effect; inconclusive means small, poorly fitted or top-dose-only effect; inactive means no such curve, though single readings can be large or run the other way; further: nearly all actives have a fitted effect of over 50% in size
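S. cerevisiae expressing influenza A NS1, grown in glucose, washed, then diluted 1:100 into pH 6.0 -URA galactose medium with 23 nl compound. Growth recovery read as OD600; NS1-free strain serves as control.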
2A StopGo: High Throughput Screening for Foot and Mouth Disease Virus Antivirals; human cells with a luciferase reporter of 2A StopGo recoding; control for the full effect not named in the record; Potency, µM (titrated, usually from 57.9 µM), inactives show top-dose signal change, negative = less light; hit rate 1.2% among 410,000; AID 1159524, 2015; active = well fitted falling curve with a large enough effect; inconclusive = small, poorly fitted or top-dose-only effect; inactive = no such curve, though single readings can be large or run the other way; tested in HEK293T cells; further: on the % scale 0 is the no-effect control and ±100 the full control effect; nearly all actives have a fitted effect of over 45% in size; luciferase light after 4 h
Marburg entry inh: qHTS for inhibitors of binding or entry into cells for Marburg Virus; Marburg virus pseudotyped entry inhibition, cell reporter; control for the full effect not named in the record; about a third of the inactives were read at about 46 µM; Potency, µM (highest dose often 37.8 µM), for inactives: top-dose activity change, negative = inhibition, actives largely listed as inhibitors; hit rate 1.8% among 300,000; AID 540276, 2011; active = well fitted inhibition curve with a large enough effect; inconclusive = small, poorly fitted or top-dose-only effect, or effect the other way; inactive = flat fitted curve, though single readings scatter; tested in HEK293 cells; about a fifth of its hits are not listed in these tables; further: on the % scale 0 is the no-effect control and ±100 the full control effect; luciferase read-out
RE007 growth inh: qHTS Assay for Inhibitors of the HIV-1 protein Vpr; S. pombe RE007 Vpr strain, BacTiter-Glo ATP luminescence, 24 h; control for the full effect not named in the record; Potency, µM (titrated, usually from 92.2 µM), inactives show at the highest dose activity change, negative = less growth; hit rate 0.21% among 360,000; active = well fitted falling curve with a large enough effect; inconclusive = small, poorly fitted or top-dose-only effect; inactive = no such curve, though single readings can be large or run the other way;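 further: on the % scale 0 is the no-effect control and ±100 the full control effect; nearly all actives have a fitted effect of over 50% in size; the assay follows cell death caused by Vpr and the record does not say whether a fall means rescue or toxicity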
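Fission yeast strain RE007, carrying one chromosomally integrated HIV-1 vpr copy, was seeded at OD 0.01 in PMG+AL medium with 23 nL pinned compound. After 24 h at 30 °C and 99% humidity, viability was read by BacTiter-Glo luminescence.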
Cruzain Triton: qHTS Assay for Promiscuous and Specific Inhibitors of Cruzain (with detergent); purified cruzain, Z-FR-AMC fluorescence, 0.01% Triton; hit rate 0.43% among 200,000; AID 1478, 2009; Cruzipain (Trypanosoma cruzi), P25779; Potency, µM, inactives show max response, negative = inhibition, most hits filed as inhibitors;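 further: plate controls were neutral wells for no effect and buffer without enzyme for full effect; nearly all actives have a fitted effect of over 40% in size; top concentration of the series not given in the record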
Target sequence (P25779 123-467 limits assumed): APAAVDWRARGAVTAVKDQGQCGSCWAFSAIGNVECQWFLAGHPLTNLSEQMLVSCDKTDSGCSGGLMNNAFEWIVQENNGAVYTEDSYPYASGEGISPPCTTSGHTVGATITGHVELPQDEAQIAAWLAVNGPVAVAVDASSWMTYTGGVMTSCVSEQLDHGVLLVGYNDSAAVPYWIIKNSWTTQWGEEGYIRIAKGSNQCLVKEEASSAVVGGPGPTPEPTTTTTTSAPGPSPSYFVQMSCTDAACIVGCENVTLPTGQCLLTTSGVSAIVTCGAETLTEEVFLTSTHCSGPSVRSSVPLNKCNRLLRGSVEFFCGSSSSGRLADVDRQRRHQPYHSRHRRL
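Z-FR-AMC hydrolysis (2 uM substrate) by cruzain (1.5 nM) monitored kinetically at ex 360/em 450 nm after 15 min room-temperature compound exposure; 0.01% Triton X-100, pH 5.5, 5 mM DTT.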
SARS PLpro yeast: qHTS of Yeast-based Assay for SARS-CoV PLP; hit rate 0.19% among 330,000; S. cerevisiae expressing SARS-CoV PLpro, growth rescue; control for the full effect not named in the record; Potency, µM (top dose mostly 32.9 µM), for inactives: top-dose activity, positive = growth rescue; active means well fitted rising curve with a large enough effect; inconclusive means small, poorly fitted or top-dose-only effect; inactive means no such curve, though single readings can be large or run the other way; further: 0% is about no effect; nearly all actives have a fitted effect of over 55% in size; growth read by luminescence after 48 h
Cruzain noTriton: qHTS Assay for Promiscuous and Specific Inhibitors of Cruzain (without detergent) | Cruzipain (Trypanosoma cruzi), P25779 | purified cruzain, Z-FR-AMC fluorescence, no detergent | Potency, µM, for inactives: max response, negative = inhibition, usual class: inhibitors | hit rate 2.3% among 200,000 | AID 1476, 2009;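 further: plate controls were enzyme without inhibitor for no effect and buffer without enzyme for full effect; nearly all actives have a fitted effect of over 40% in size; top concentration of the series not given in the record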
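Detergent-free condition (0.00005% Triton X-100) in acetate buffer pH 5.5 with DTT. 1.5 nM enzyme and compound were pre-mixed 15 min, then 2 uM Z-FR-AMC substrate added; reaction progress from fluorescence change between first and third reads (60 s).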
Lassa entry inh: qHTS for Inhibitors of binding or entry into cells for Lassa Virus | hit rate 1.2% among 300,000 | Potency, µM (series often up to 37.9 µM), for the others: top-dose activity change, negative = inhibition, most hits filed as inhibitors | Lassa virus pseudotype entry inhibition, cell reporter; control for the full effect not named in the record; active means well fitted inhibition curve with a large enough effect; inconclusive means small, poorly fitted or top-dose-only effect, or effect the other way; inactive means flat fitted curve, though single readings scatter; tested in HEK293 cells; further: on the % scale 0 is the no-effect control and ±100 the full control effect; nearly all actives have a fitted effect of over 50% in size; luciferase read-out
* hit, by the source's call; & = joins results of further samples; [ ] = remark or other dose. Unless noted, the call rests on the fitted dose curve; in most records, active means well fitted curve in the direction sought with a large enough effect; inconclusive means small, poorly fitted or top-dose-only effect, or another doubt; inactive means no such curve, though single readings can be large; an effect the other way counts as inactive or inconclusive. Potency means the concentration at half of the fitted maximal effect.

How did CS(=O)(=O)N(CCc1ccccc1)CC(=O)N1CCCCC1 do in these assays?
NS1 inh: -3%; 2A StopGo: 7%; Marburg entry inh: -2%; RE007 growth inh: 13%; Cruzain Triton: 3.8%; Cruzain noTriton: -3%; Lassa entry inh: 8%

Results for Cc1cc(C)c(S(=O)(=O)Nc2ccccc2-c2ccccc2)c(C)c1 ?
NS1 inh: -20%; 2A StopGo: inconclusive; Marburg entry inh: inconclusive; RE007 growth inh: -4%; Cruzain Triton: -7.9%; SARS PLpro yeast: -63%; Cruzain noTriton: 3%; Lassa entry inh: inconclusive

How did O=C(Nc1cc2c(cc1Cl)OCCCO2)c1ccco1 do in these assays?
NS1 inh: -2%; 2A StopGo: 18%; Marburg entry inh: 5%; RE007 growth inh: -8%; Cruzain Triton: -0.3%; SARS PLpro yeast: 8%; Cruzain noTriton: -6%; Lassa entry inh: -8%

Results for Fc1ccc(C2=Nn3c(nnc3-c3ccco3)SC2)cc1 ?
NS1 inh: 5%; 2A StopGo: 4%; Marburg entry inh: 9%[46.1 µM]; RE007 growth inh: -5%; SARS PLpro yeast: -2%; Lassa entry inh: 0%

Results for CCc1ccc(-n2c(=O)c3ccccc3n(CC(=O)NCCc3ccc(OC)c(OC)c3)c2=O)cc1 ?
2A StopGo: -14%; Marburg entry inh: 16%[46.1 µM]; Cruzain Triton: -0.6%; Cruzain noTriton: 22%; Lassa entry inh: -5%[46.1 µM]

How did O=C(NCc1ccc(N2CCCC2=O)cc1)Nc1cccc(Cl)c1 do in these assays?
NS1 inh: 24%[9.22 µM]; Marburg entry inh: -21%; RE007 growth inh: 7%; Cruzain Triton: -2.2%; SARS PLpro yeast: 5%; Cruzain noTriton: 11%; Lassa entry inh: -8%

What do the screens show for `Cc1onc(-c2ccccc2Cl)c1C(=O)NCc1ccccc1F`?
NS1 inh: 6%; 2A StopGo: -8%; RE007 growth inh: 14%; SARS PLpro yeast: 6%

What do the screens show for `O=C(O)c1cccc(C(=O)O)c1`?
NS1 inh: 8%; 2A StopGo: -12%; RE007 growth inh: 2%; SARS PLpro yeast: -3%

How did COc1ccc(Cl)cc1NC(=O)C12CCC(C)(C(=O)O1)C2(C)C (stereo not given) do in these assays?
NS1 inh: -6%; 2A StopGo: -2%; Marburg entry inh: 2%; RE007 growth inh: -12%; Cruzain Triton: 6.0%; SARS PLpro yeast: 2%; Cruzain noTriton: -6%; Lassa entry inh: -2%

How did Cc1ccc(S(=O)(=O)NC(=O)Nc2cccc(S(=O)(=O)N(C)C)c2)cc1 do in these assays?
2A StopGo: -1%; Marburg entry inh: -28%; RE007 growth inh: 4%; SARS PLpro yeast: -3%; Lassa entry inh: 22%

How did O=C(O)c1ccccc1-n1cnnn1 do in these assays?
NS1 inh: -1%; 2A StopGo: 6%; RE007 growth inh: -6%; SARS PLpro yeast: 2%

What do the screens show for `CCCCCCCNC(=O)C1(CC2CC(c3ccc(Cl)cc3)=NO2)CCN(C(=O)CCCCCBr)CC1` (stereo not given)?
NS1 inh: -31%; 2A StopGo: -6%; RE007 growth inh: 1%; SARS PLpro yeast: 2%

Fetched one by one from above:
What do the screens show for `O=C(O)c1cccc(C(=O)O)c1`?
NS1 inh: 8%; 2A StopGo: -12%; RE007 growth inh: 2%; SARS PLpro yeast: -3%

What do the screens show for `Cc1onc(-c2ccccc2Cl)c1C(=O)NCc1ccccc1F`?
NS1 inh: 6%; 2A StopGo: -8%; RE007 growth inh: 14%; SARS PLpro yeast: 6%

Following part:
How did Cc1nc2sc(C(c3cccc(F)c3)N3CCCCC3)c(O)n2n1 (stereo not given) do in these assays?
NS1 inh: 5%; 2A StopGo: 20%; Marburg entry inh: 22%; RE007 growth inh: -9%; Cruzain Triton: -2.3%; SARS PLpro yeast: 1%; Cruzain noTriton: 7%; Lassa entry inh: -3%

Results for O=C1CCN(C(=O)Cc2ccccc2[N+](=O)[O-])CC1 ?
2A StopGo: -4%; Marburg entry inh: 11%[46.1 µM]; RE007 growth inh: inconclusive; SARS PLpro yeast: 4%; Lassa entry inh: -16%[46.1 µM]

What do the screens show for `Cc1oc(C)c2c(=O)cc(-c3ccc4c(c3)OCO4)cc(OC(=O)c3cccc(Cl)c3)c12`?
2A StopGo: -13%; Marburg entry inh: 24%[46.1 µM]; Cruzain Triton: -4.4%; Cruzain noTriton: inconclusive; Lassa entry inh: 29%[46.1 µM]

How did CCC1=NN(C(=O)c2cccc([N+](=O)[O-])c2)C(O)(c2ccc(C)cc2)C1 (stereo not given) do in these assays?
NS1 inh: -9%; 2A StopGo: 17%; RE007 growth inh: 2%; SARS PLpro yeast: 5%

Results for O=C(NC1CCCN(CCc2ccccc2)C1)c1c[nH]c2ccccc12 (stereo not given) ?
NS1 inh: -11%; 2A StopGo: -16%; RE007 growth inh: -2%; SARS PLpro yeast: 5%

How did Cc1ccc(C(=O)NC(=S)Nc2ccc(S(=O)(=O)N3CCN(C)CC3)cc2)cc1 do in these assays?
NS1 inh: 18%; 2A StopGo: -4%; Marburg entry inh: inconclusive; RE007 growth inh: 5%; Cruzain Triton: 2.3%; SARS PLpro yeast: 1%; Cruzain noTriton: 3%; Lassa entry inh: -15%

What do the screens show for `O=C1NC(=S)NC(=O)C12C(c1ccc(F)cc1)NC(=S)NC2c1ccc(F)cc1` (stereo not given)?
NS1 inh: 7%; 2A StopGo: -3%; Marburg entry inh: 3%[46.1 µM]; RE007 growth inh: 7%; Cruzain Triton: -5.0%; SARS PLpro yeast: 1%; Cruzain noTriton: 3%; Lassa entry inh: 9%

What do the screens show for `CN(C(=O)CSc1nnc(-c2ccccc2)c(-c2ccccc2)n1)C1CCS(=O)(=O)C1` (stereo not given)?
NS1 inh: -7%; 2A StopGo: -21%; Marburg entry inh: 16%; RE007 growth inh: 6%; Cruzain Triton: -4.3%; SARS PLpro yeast: 17%; Cruzain noTriton: 5%; Lassa entry inh: -4%

What do the screens show for `CN(C)CCCNC1=CC(=O)CC(c2ccccc2)C1` (stereo not given)?
2A StopGo: 7%; Marburg entry inh: -13%[46.1 µM]; RE007 growth inh: -11%; SARS PLpro yeast: -4%; Lassa entry inh: -1%

Results for COc1cc(OC)c2c(c1)OC(=O)CC2c1cc(OC)c(OC)c(OC)c1 (stereo not given) ?
2A StopGo: -21%; RE007 growth inh: 9%; Cruzain Triton: 1.4%; SARS PLpro yeast: -6%; Cruzain noTriton: 13%

How did O=C(CN(CC1CCCO1)S(=O)(=O)c1ccc(S(=O)(=O)NC2CC2)cc1)Nc1ccccc1 (stereo not given) do in these assays?
NS1 inh: -20%; 2A StopGo: -16%; Marburg entry inh: -12%&-12%; RE007 growth inh: 1%; Cruzain Triton: 0.1%; SARS PLpro yeast: 0%; Cruzain noTriton: -6%; Lassa entry inh: 1%

What do the screens show for `Cc1cc(C)c(OCC(=O)N(Cc2ccc(N(C)C)cc2)C2CCS(=O)(=O)C2)c(C)c1` (stereo not given)?
NS1 inh: 0%; 2A StopGo: -15%; Marburg entry inh: inconclusive; RE007 growth inh: -16%; SARS PLpro yeast: 0%; Lassa entry inh: -23%[46.1 µM]

How did C=CCn1c(=O)c2c(nc(Br)n2Cc2ccccc2Cl)n(C)c1=O do in these assays?
NS1 inh: 6%; 2A StopGo: inconclusive; Marburg entry inh: -21%; RE007 growth inh: 28%; Cruzain Triton: -1.8%; SARS PLpro yeast: 3%; Cruzain noTriton: -4%; Lassa entry inh: inconclusive

What do the screens show for `CCN(CC)S(=O)(=O)c1cccc(NC2=NCC(C)S2)c1` (stereo not given)?
2A StopGo: 11%; Marburg entry inh: 11%[46.1 µM]; RE007 growth inh: -19%; SARS PLpro yeast: 1%; Lassa entry inh: inconclusive

How did O=C(C(c1ccccc1)c1ccccc1)N1CCCc2ccccc21 do in these assays?
NS1 inh: -9%; 2A StopGo: -7%; Marburg entry inh: 14µM*; RE007 growth inh: -2%; Cruzain Triton: -7.5%; SARS PLpro yeast: -26%; Cruzain noTriton: -8%; Lassa entry inh: -20%

Results for O=C(Nc1ccccc1Oc1ccccc1)C1=COCCO1 ?
NS1 inh: -11%; 2A StopGo: -12%; RE007 growth inh: -6%; SARS PLpro yeast: 3%

What do the screens show for `CCC(C(=O)NC1CCCC1)n1nc(C)n2c(cc3occc32)c1=O` (stereo not given)?
NS1 inh: 15%; 2A StopGo: 13%; RE007 growth inh: -4%; SARS PLpro yeast: 3%

How did O=C(NCC(c1ccco1)N1CCc2ccccc2C1)c1ccccc1 (stereo not given) do in these assays?
2A StopGo: 44%[activator]; Marburg entry inh: 17%; RE007 growth inh: -17%; SARS PLpro yeast: -3%; Lassa entry inh: inconclusive

What do the screens show for `O=C(Nc1cccnc1)Nc1cccc(F)c1`?
NS1 inh: 5%; 2A StopGo: 20%; RE007 growth inh: 24%; SARS PLpro yeast: -4%

How did O=C1CN(c2ccc(Br)cc2)C(=O)N1CC(=O)N1CCCc2ccccc21 do in these assays?
NS1 inh: -68%; Marburg entry inh: inconclusive; RE007 growth inh: 12%; Cruzain Triton: -0.9%; SARS PLpro yeast: 2%; Cruzain noTriton: -21%; Lassa entry inh: 3%

What do the screens show for `CC1Cc2cc(/C(O)=C3/C(=O)C(=O)N(CCN4CCOCC4)C3c3cccc(Cl)c3)ccc2O1` (stereo not given)?
NS1 inh: -36%; 2A StopGo: 6%; Marburg entry inh: 22%; RE007 growth inh: 3%; Cruzain Triton: -6.7%; SARS PLpro yeast: 0%; Cruzain noTriton: inconclusive; Lassa entry inh: 3%

Outcome played no part in choosing rows, and some 4.7% of all compounds hit somewhere here.
